Assay outcomes: PubChem, several laboratories
Vif TR-FRET: inhibitors of Vif binding to APOBEC3G peptide, primary screen, biochemical, TR-FRET, GST-Vif 1-94, biotin-A3G peptide, dose response retest (AID 1117319); TR-FRET GST-Vif / biotin-A3G peptide binding; higher % means a stronger effect; test concentration not given here; strong numbers were not always called active; inhibition, %, or IC50 in µM where a hit was titrated; 260,000 compounds, 0.57% hits;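 active = above the screen mean plus three standard deviations and confirmed in dose response; inconclusive = results disagree or hit not tested in dose response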;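 note: Vif residues 1-94 fused to GST binding biotinylated APOBEC3G peptide 110-148; 0% = full assay without inhibitor and 100% = GST in place of GST-Vif; retest series ran down from 100 µM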
LANA-H2A inh: blocks KSHV LANA binding to histone H2A/H2B | Q9QR71 | AID 2629 | 320,000 compounds, 0.6% hits | inhibition, % (test concentration not listed) | cell-free LANA-H2A/H2B peptide, fluorescence polarization; in the data active = inhibition mostly above about 10%, no sharp cut-off; inactive = mostly below about 6.7%;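 note: stock transfer was 7.5 nL into about 10 µL; 0% = median of vehicle wells and 100% = median of positive control wells; one replicate is shown; the record names a cut of 25% in any replicate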
Beta cell apopt: beta cell apoptosis inhibition. INS-1E cytokine-induced death, ATP luminescence, 48 h; percent of positive-control rescue, neutral wells zero. protection from apoptosis, % (no concentration beside the values). 300,000 compounds, 0.8% hits. AID 435005;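 active = all replicates at 75% or more, or half of them and the mean; inconclusive = half reach 75% but not the mean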;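 note: 0% = cytokine-treated negative control wells and 100% = positive control rescue; higher means more ATP so stronger rescue from cytokine killing; wells of about 40 µL received 100 nL stock; the first replicate is given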
T cruzi inh: blocks replication of Trypanosoma cruzi | T. cruzi beta-gal in NIH3T3, luminescence, 90 h | inhibition, % (concentration not given with the values) | 300,000 compounds, 1.4% hits;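 active = mean inhibition across valid replicates above about 55%, limit read from the data; inconclusive = mean below that limit but half or more replicates reach it; inactive = mean below it, under half of replicates reach it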;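 note: signal also drops with host cell toxicity which is not excluded here; 0% = plate median of DMSO wells and 100% = zero luminescence signal; higher percent means less beta-gal luminescence so fewer parasites; stock transfer was 50 nL into about 50 µL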
RanGTP-Imp inh: disruptors of Ran-importin-beta complex formation – biochemical, FRET, CFP-Ran, YFP-importin-beta, homogeneous, primary screen; AID 2216; cell-free CFP-Ran/YFP-importin-beta FRET ratio; 300,000 compounds, 1.1% hits; inhibition, % (no concentration beside the values);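 active = most replicates above 15%; inconclusive = exactly half above 15%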;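 note: 0% = DMSO wells and 100% = Ran loaded with GDP instead of GTP; wells of about 40 µL received 100 nL stock; the first replicate is given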
A1 inh: inhibitors of the anti-apoptotic protein A1, read as caspase activation; MEF A1-2A-BIM cells, Caspase-Glo 3/7 luminescence, 3 h; percent of clofoctol response, vehicle zero; caspase activation, % (test concentration not listed); 330,000 compounds, 0.066% hits;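 active = over half of replicate activation scores above 10%, or exactly half above 10 with the replicate mean above 10; inconclusive = replicate mean below 10 yet half the replicates above 10; inactive = over half of replicates below 10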;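 note: wells of about 30 µL received 50 nL stock; many hits fall short of the cut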
AF4-AF9 inh: inhibitors of human MLL-AF4/AF9 interaction | P42568 | AlphaScreen, biotin-AF4 peptide binding to FLAG-AF9 | inhibition, % at 10 µM | 350,000 compounds, 0.47% hits;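 active = every replicate reaching a set inhibition limit, whatever the replicate mean, cut at about 25% in these data; inconclusive = mean inhibition reaches that limit but some replicates miss it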;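 note: 0% = plate neutral control median and 100% = total signal loss; the record names both 10 and 1 µM as test concentration; the first replicate is given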
Target sequence (P42568 whole entry, looked up): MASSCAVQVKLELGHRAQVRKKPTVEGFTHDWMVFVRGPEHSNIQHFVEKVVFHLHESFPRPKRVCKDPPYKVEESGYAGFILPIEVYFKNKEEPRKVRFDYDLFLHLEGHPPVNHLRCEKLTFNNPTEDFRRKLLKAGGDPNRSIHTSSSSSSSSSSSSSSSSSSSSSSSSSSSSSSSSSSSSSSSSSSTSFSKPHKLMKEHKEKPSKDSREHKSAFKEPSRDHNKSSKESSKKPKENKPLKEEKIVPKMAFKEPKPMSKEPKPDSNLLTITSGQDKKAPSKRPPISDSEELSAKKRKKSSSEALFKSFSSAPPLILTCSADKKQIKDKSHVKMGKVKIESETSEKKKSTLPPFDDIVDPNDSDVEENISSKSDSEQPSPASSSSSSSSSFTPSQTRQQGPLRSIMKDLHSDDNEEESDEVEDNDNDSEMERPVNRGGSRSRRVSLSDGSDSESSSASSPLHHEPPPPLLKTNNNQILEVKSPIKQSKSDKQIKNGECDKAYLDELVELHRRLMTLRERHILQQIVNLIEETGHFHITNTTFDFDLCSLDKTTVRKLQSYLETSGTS
Calb FLC: C. albicans growth modulation with fluconazole; C. albicans CaCi-2 (fluconazole-resistant clinical isolate) + fluconazole, Alamar Blue growth, 48 h; growth inhibition, % (concentration not given with the values); 300,000 compounds, 0.57% hits; AID 1979;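 active = most replicates above 75%; inconclusive = exactly half above 75%; inactive = most below 75%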;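 note: all wells also contain fluconazole at 8 µg/ml as a sub-toxic cotreatment; 0% = median of DMSO wells and 100% = median of geldanamycin control wells; wells of about 8 µL received 7.5 nL stock; the first replicate is given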
* hit, by the source's call; ? = inconclusive; / = no result given; & = joins results of further samples.

Order of results – A1 inh, RanGTP-Imp inh, AF4-AF9 inh, LANA-H2A inh, Calb FLC, Beta cell apopt, Vif TR-FRET, T cruzi inh
1) CCOC(=O)N1CCN(CC(=O)Nc2ccc(C)c(Br)c2)CC1
    -0.4, 3.2, /, 2.7, -3, 2, 0%, -1
2) CCC(C(=O)NC1CCCC1)N(C(=O)Cn1nnc(-c2ccc(C)o2)n1)c1ccc(OC)cc1 (stereo not given)
    -0.5, ?, 2.6, 1.5, -18, /, /, 19
3) Cc1cccc(NC(=O)CC(C)(C)C)c1
    0.9, 1.7, /, -0.2, 20, -1, 5%, 4
4) O=C(NC1=NCCS1)C1CCN(S(=O)(=O)c2ccccc2C(F)(F)F)CC1
    -0.2, /, -3.9, -3.8, /, 3, 3%, /
5) CS(=O)(=O)N(CC(=O)Nc1ccccc1Br)Cc1ccccc1
    -6.7, 1.9, 4.6, -3.4, -13, 42, /, -6
6) O=C(NC1CCc2ccccc21)c1cc(COc2ccc(F)cc2F)on1 (stereo not given)
    -0.1, -2.6, -14, -1.4, 29, 1, /, 6
7) C=COCCNC(=O)C(=O)NC(C)C
    0.4, 4.8, /, 17*, -6, -3, 3%, -12
8) O=C1C(c2ccccc2)=[N+]([O-])c2ccccc21
    -1.4, -1.3, 24, 3.9, 41, 47, /, 25
9) Cn1c(Cn2c(=O)sc3ccccc32)nnc1SCC(=O)Nc1ccccc1
    0.8, -1.1, 0.0, -2.8, 17, -6, 18%, 4
10) CC(C)C1Cc2c(sc3c2c(=O)n(Cc2ccccc2)c2nncn32)CO1 (stereo not given)
    0.5, 1.8, /, 2.7, -2, 2, ?, 33
11) O=C(COc1ccc(C(=S)N2CCOCC2)cc1)N1CCCC1
    -0.8, 4.6, /, 2.8, -11, -8, 2%, -7
12) COc1ccc(N2CC(C)Cn3c2nc2c3c(=O)[nH]c(=O)n2C)cc1 (stereo not given)
    -0.4, -2.3, /, 0.0, -1, -11, -3%, -6
13) COc1ccc([N+](=O)[O-])cc1NC(=O)C(C)N1CCN(C(=O)c2ccco2)CC1 (stereo not given)
    0.5, 1.4, -0.2, -2.0, -7, -1, 5%, 1
14) CCC(=O)Nc1cccc(Oc2nc(C)cc(C)c2C#N)c1
    -0.3, 2.7, -4.6, 2.8, -1, -2, 74%, -5
15) CCOc1ccc(-n2c(SCC(=O)Nc3cc(C)on3)nc3c([nH]c4ccccc43)c2=O)cc1
    -0.8, 0.2, 1.0, 0.7, 39, 3, 9%, 4
16) O=C1/C(=C\c2ccncc2)SC(=S)N1C1CCCCC1
    0.8, -1.1, 0.1, 0.5, -14, 1, -7%, -2
17) CC(C)c1ccc(CNc2cc(N3CCCC3)ccc2[N+](=O)[O-])cc1
    0.8, 0.0, 1.3, -6.9, 10, /, 10%, 37
18) Cc1cc(O)ccc1NC(=O)CCN1C(=O)c2ccc([N+](=O)[O-])cc2C1=O
    0.0, 0.8, /, 3.0, -7, -7, 10%, -16
19) COc1ccc(-c2csc(NC(=O)c3ccc(OCC(=O)N4CCOCC4)c(OC)c3)n2)cc1OC
    0.6, -1.9, 2.2, -1.1, 4, 9, -5%, -11
20) CC(C)C[C@H](NC(=O)NC1CCCc2ccccc21)C(=O)O (stereo not given in full)
    0.2, 2.1, -3.7, -1.1, 2, -10, ?, -19
21) CC(=O)N1CCc2c(sc(NC(=O)C3CCCN3S(=O)(=O)c3cccs3)c2C#N)C1 (stereo not given)
    0.1, 3.2, -0.1, 5.3, -11, 0, -3%, 5
22) Cc1ccc(CN2CCSCC2)c(C)c1
    -0.3, -1.7, /, 8.4, -14, -9, 0%, -4
23) O=C(NN1C(=O)/C(=C/c2cccs2)SC1=S)c1ccncc1
    -1.1, 1.7, 1.2, 1.7, -1, 4, -2%, 28
24) CN(C)c1ccnc2sc3c(NCC(O)CO)ncnc3c12 (stereo not given)
    2.1, 3.9, -0.9, -7.2, -8, 0, /, 0
25) NS(=O)(=O)c1ccc(Sc2ccc3c(c2)CCC3)nc1
    -0.4, 2.5, -0.9, 5.5, 1, -6, -3%, 5
26) O=C(O)c1cccnc1SC1CC(=O)N(c2cccc(C(F)(F)F)c2)C1=O (stereo not given)
    0.8, -1.2, -2.1, 1.0, -1, -6, ?, 12
27) C=C1CCC2[C@](C)(CO)[C@H](O)CC[C@@]2(C)[C@@H]1/C=C/C1=CCOC1=O (stereo not given in full)
    -1.3, 2.3, -0.8, -5.8, -3, -2, /, -11
28) CC(C)NC(=O)Cn1c(=O)n(CC(=O)N2CCCCC2)c(=O)c2sccc21
    -0.1, -3.0, -0.8, 4.9, 1, -3, 10%, -6
29) COc1cc2c(cc1OC)C(c1ccc(-c3ccc(Cl)cc3Cl)o1)=NCC2
    1.2, 0.9, /, 1.2, 18, 22, 6%, 49
30) CC(c1ccccc1)N1C(=O)C2C3CCC(C3)C2C1=O (stereo not given)
    1.0, -0.3, /, -5.5, 7, -3, 12%, -6

Entries of single compounds, looked up by structure.
Listed for `C=COCCNC(=O)C(=O)NC(C)C` : A1 inh: 0.4; RanGTP-Imp inh: 4.8; AF4-AF9 inh: /; LANA-H2A inh: 17*; Calb FLC: -6; Beta cell apopt: -3; Vif TR-FRET: 3%; T cruzi inh: -12
Listed for `Cn1c(Cn2c(=O)sc3ccccc32)nnc1SCC(=O)Nc1ccccc1` : A1 inh: 0.8; RanGTP-Imp inh: -1.1; AF4-AF9 inh: 0.0; LANA-H2A inh: -2.8; Calb FLC: 17; Beta cell apopt: -6; Vif TR-FRET: 18%; T cruzi inh: 4

Further entries.
Order of results – A1 inh, RanGTP-Imp inh, AF4-AF9 inh, LANA-H2A inh, Calb FLC, Beta cell apopt, Vif TR-FRET, T cruzi inh
31) N#C/C(=C\c1ccc(Br)s1)C(=O)N1CCN(c2ccccc2)CC1
    -1.3, -1.3, 6.6, 2.1, -6, -4, 22%, -3
32) CCOC(=O)C1CCN(S(=O)(=O)c2ccc3c(c2)CC(=O)N3C)CC1
    -0.3, 2.4, -1.9, 1.4, -3, -2, /, -5
33) O=C(c1ccccc1)c1cc2c(cc1[N+](=O)[O-])OCCO2
    0.0, 4.8, 4.1, -6.5, 22, -4, -2%, -6
34) COc1ccc(-c2nnc(SCC(=O)N3CCCC(C)C3)o2)c(OC)c1 (stereo not given)
    0.4, 7.3, 1.7, -1.7, 0, -2, 25%, 20
35) COc1cccc(COc2ccc3ccc(=O)oc3c2)c1
    -5.1, 4.5, -2.5, 3.2, 6, -4, /, -21
36) CC(C)c1ccc(C2CC(=O)N3CN(Cc4ccco4)CSC3=C2C#N)cc1 (stereo not given)
    0.4, 1.1, /, 2.4, -2, -10, ?, 8
37) CCn1c(=O)cc(OCC(=O)Nc2cccnc2)c2ccccc21
    0.8, 1.4, /, -1.3, -2, /, ?, -3
38) O=C(O)c1nc(NCCc2ccccc2)ncc1Cl
    -0.7, 1.6, -1.3, -0.2, 8, -4, /, -13
39) CCC(c1nnnn1CCc1ccccc1)N(Cc1ccco1)Cc1cc2cc(C)cc(C)c2[nH]c1=O (stereo not given)
    -0.4, -0.2, /, 0.6, 26, 22, 9%&-5%, 13
40) CSc1cccc(NC(=O)Nc2ccccc2C(N)=O)c1
    -2.5, 2.6, -2.2, -1.2, /, 1, 7%, -10
41) COc1ccc(NC(C)=O)cc1NC(=O)c1cccc(S(=O)(=O)N2CCN(Cc3ccccc3)CC2)c1
    0.6, -0.8, 1.4, 1.7, /, -2, /, 39
42) CC(=O)N1c2c(cc(Br)cc2S(=O)(=O)NCc2cccnc2)CC1C (stereo not given)
    -0.2, 1.3, /, -4.7, -6, /, ?, -20
43) O=C(Nc1ccc(N2CCN(Cc3ccccc3F)CC2)cc1)c1ccccc1[N+](=O)[O-]
    1.1, 5.4, 1.9, 2.6, 1, -2, 8%, 14
44) Brc1cnc(N2CCOCC2)nc1N1CCCCC1
    -0.2, 3.3, /, 1.8, -4, -6, 2%, 7
45) O=C(CSc1nnc(-c2ccncc2)n1CCc1ccccc1)NCc1ccccc1
    2.8, 1.2, /, 1.9, -4, 1, 6%, 42
46) O=C1c2ccccc2C(=O)N1CCc1nn[nH]n1
    -0.2, 2.5, /, 12, 1, 0, 20%, -8
47) COc1ccc(-c2n[nH]c(C)c2-c2cc(OC)ccc2O)cc1
    -3.4, 6.0, /, 0.1, -33, /, 2%, -2
48) O=C(NC1(C(F)(F)F)NC(=O)N(c2ccccc2F)C1=O)c1ccncc1 (stereo not given)
    0.2, 4.9, 2.5, -1.2, -5, 2, 21%, -19
49) Cc1c(CN(C)Cc2cn(C)nc2-c2ccccc2F)[nH]c2ccccc12
    -0.4, -1.7, 17, 1.3, -6, -4, /, -2
50) Cc1ccc(NC(=O)COC(=O)c2ccc3c(c2)OCO3)cc1S(=O)(=O)N1CCCCC1
    0.9, -2.2, 0.5, 1.4, -4, -11, -5%, -2
51) CC(C)C(OC(=O)c1oc2ccccc2c1CSC1CCCCC1)C(=O)NC(N)=O (stereo not given)
    0.5, -0.6, /, -0.6, -11, 6, 6%, 12
52) O=C(O)Cc1ccc(NC(=O)C(c2ccccc2)c2ccccc2)cc1
    ?, 1.3, -0.8, 7.5, 4, 0, 30%, -12
53) CN1C(=O)c2ccc(NC(=O)C3CC3)cc2C1=O
    ?, 0.1, -0.8, 3.1, 1, /, -8%, 5
54) COc1ccc(-c2noc(-c3ccc(Br)o3)n2)cc1OC
    -0.9, 0.1, /, -3.2, -1, -3, -24%, -22
55) COc1ccc(Cl)cc1NC(=O)NC(C)C
    0.5, 0.0, -0.7, 0.2, -13, 1, /, -20
56) CC(c1ccccc1)N1CNc2c(c(=O)n(C)c(=O)n2C)C1 (stereo not given)
    0.7, 0.9, /, 1.1, -2, -6, -4%, -6
57) C=CCn1c(=O)c2ccccc2n2c(SCc3cc(=O)n4ccsc4n3)nnc12
    -0.6, 1.7, /, -0.4, 10, 2, 15%, 3
58) COc1ccc(C(=O)N(CN2CCCC2=O)c2nccs2)cc1OC
    0.4, 2.2, /, 1.9, -2, -4, 2%, -6
59) OC(COc1cccc2ccccc12)CN1CCN(c2ccccn2)CC1 (stereo not given)
    0.2, -2.8, /, -4.4, 18, -5, -4%, -14
